Screens: PubChem BioAssay, ICCB-Longwood Screening Facility, Harvard Medical School
PV pol inh: poliovirus RdRp elongation inhibitors, primary screen, biochemical, fluorescence polarization, total intensity. Genome polyprotein (Poliovirus type 1 (strain Mahoney)), P03300. poliovirus polymerase elongation; hits give low values. % elongation, % (compound at 16.7 µg/mL). 150,000 tested, 0.66% active; in the data active means % elongation below about 90%; further: some results filed as inactive read as strong as hits
Target sequence (P03300 1749-2209 limits assumed): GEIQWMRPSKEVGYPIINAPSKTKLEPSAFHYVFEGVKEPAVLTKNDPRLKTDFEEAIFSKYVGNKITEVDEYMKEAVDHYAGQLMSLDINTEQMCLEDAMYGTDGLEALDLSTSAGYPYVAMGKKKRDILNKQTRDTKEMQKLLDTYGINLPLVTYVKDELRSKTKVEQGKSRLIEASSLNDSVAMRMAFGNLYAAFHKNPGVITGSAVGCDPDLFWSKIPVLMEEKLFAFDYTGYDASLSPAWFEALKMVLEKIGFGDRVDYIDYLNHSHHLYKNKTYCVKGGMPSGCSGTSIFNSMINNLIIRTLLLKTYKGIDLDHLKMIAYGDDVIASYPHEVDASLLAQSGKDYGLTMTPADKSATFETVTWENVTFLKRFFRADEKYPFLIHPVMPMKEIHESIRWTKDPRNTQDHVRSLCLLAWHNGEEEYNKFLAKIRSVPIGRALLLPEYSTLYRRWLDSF
PV pol inh intensity: also measured in PV pol inh; calls as there; % elongation; measured here: total intensity read-out; formula for this scale not given here;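 total fluorescence in place of polarization; lower means less elongation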
* hit, by the source's call. A portion of the library; rates above refer to the full screens.

Values in the order: PV pol inh, PV pol inh intensity
- CCNC(=O)C1CCN(S(=O)(=O)c2ccc3c(c2)CCCN3C(C)=O)CC1
    109, 105
- CCOC(=O)c1ccc(NC(=O)c2cn(-c3ccccc3)nc2-c2ccc(OC)c(OC)c2)cc1
    109, 105
- CCOC(=O)C1CCN(c2cc3c(cc2NC(=O)c2ccc(Cl)cc2)n(C)c(=O)n3C)CC1
    106, 107
- Cc1cccc(NC(=O)c2cc(S(=O)(=O)NCCc3ccccc3)ccc2F)c1C
    106, 106
- COc1ccc(-c2nc(SCC(=O)c3ccc(OC)c(Br)c3)n[nH]2)cc1
    113, 111
- COc1ccc(CCNC(=O)CN2C(=O)COc3ccc(S(=O)(=O)N4CCCC4)cc32)c(OC)c1
    103, 102
- COc1ccc(OC)c(CNC(=O)c2ccc3c(c2)c(C)c(C)n3C)c1
    108, 110
- O=C(CSc1cn(CC(=O)N2CCCCC2)c2ccccc12)Nc1ccc(C(F)(F)F)cc1
    120, 113
- CCc1ccc(NC(=O)CC2C(=O)NCCN2C(=O)c2ccccc2OC)cc1 (stereo not given)
    105, 105
- Cc1ccc(CNc2nc3ccccc3n3c(C)nnc23)cc1
    104, 106
- Cc1c(Cl)cccc1NC(=O)N1CCC(CN2CCCC2)CC1
    112, 112
- COc1cc(C2CC(=O)Nc3c2c(=O)[nH]c2ncnn32)ccc1O (stereo not given)
    103, 105
- COc1ccc2nc(N(Cc3cccnc3)C(=O)CCc3ccccc3)sc2c1
    112, 113
- Cc1ccc(NC(=O)c2nc(S(=O)(=O)Cc3ccc(F)cc3)ncc2Cl)cc1C
    108, 86
- CCN(CC)C(=O)Cn1c(=O)n(-c2ccc(C)c(C)c2)c(=O)c2c(C)c(C(=O)N(CC)CC)sc21
    104, 111
- Cc1ccc(NC(=O)Cn2c(-c3nonc3N)nc3ccccc32)c(Br)c1
    106, 113
- Cc1cc(C)c2oc(-c3ccc(Cl)c(NC(=O)c4cccs4)c3)nc2c1
    102, 104
- CCOc1ccc(C(=O)NCC(c2cccs2)S(=O)(=O)c2ccccc2)cc1 (stereo not given)
    105, 107
- Cc1cccc(N2CCN(C(=O)CCCCn3c(=O)[nH]c4ccsc4c3=O)CC2)c1C
    103, 107
- CSc1ncc(C(=O)Nc2ccc(C)c(Cl)c2)c(-c2ccccc2)n1
    99, 103
- COc1cc(NC(=O)N2CCC3(CC2)Nc2cc(F)ccc2-n2cccc23)cc(OC)c1OC
    109, 113
- Cc1ccc(Cl)cc1NC(=O)Cn1c(=O)c(CNc2ccccc2)cc2cc3c(cc21)OCCO3
    102, 107
- CCCCOc1nnc(-c2ccc(OCC)cc2)c2ccccc12
    108, 107
- CCN(CCCNC(=O)c1nn(-c2ccc(C)cc2)c(=O)c2c1c1ccccc1n2C)c1cccc(C)c1
    106, 106
- Cc1ccc(-c2nc(CS(=O)(=O)CC(=O)N3CCN(c4ccccc4)CC3)c(C)o2)cc1
    106, 108
- O=c1c2cc3c(cc2nc2sc(Nc4ccc(F)cc4F)nn12)OCO3
    103, 108
- CCc1cc(=O)[nH]c(SCc2nc(-c3ccc(C(F)(F)F)cc3)no2)n1
    112, 103
- Cc1cccc(-c2nc(CSCC(=O)N3CCN(c4cccc(C)c4C)CC3)c(C)o2)c1
    103, 99
- COc1ccccc1CNC(=O)CN(c1ccccc1OC)S(C)(=O)=O
    101, 103
- CCC(=O)N1CCCc2cc(S(=O)(=O)Nc3ccc(C)c(C)c3)ccc21
    104, 107
- Cn1c(C(=O)NCCc2ccccc2)cc2c(=O)n3ccccc3nc21
    108, 105
- CCOc1cc(C(=O)OCc2cc(=O)n3nc(CC)sc3n2)cc(OCC)c1OCC
    102, 110
- CCOC(=O)Cn1c(=N)n(Cc2ccc(C(C)(C)C)cc2)c2ccccc21
    98, 97
- Cc1cc(C)c(Cn2c3ccccc3c3cnn(CC(=O)NCCC4=CCCCC4)c(=O)c32)c(C)c1
    106, 106
- Cc1cccc(C)c1OCC(=O)Nc1c(C(=O)c2ccccc2)oc2ccccc12
    111, 113
- O=C(O)CCc1nnc2cnc3ccccc3n12
    107, 108
- COc1ccc(CCNC(=O)C(=O)NCC(c2ccco2)S(=O)(=O)c2cccs2)cc1 (stereo not given)
    113, 105
- COc1cc2cc(CNc3ccc(C)cc3)c(=O)n(CC(=O)Nc3ccc(F)cc3F)c2cc1OC
    104, 115
- COc1ccc(CNCc2c(C(=O)O)c(C)n(Cc3ccc(Cl)cc3)c2C)c(OC)c1
    103, 105
- Cc1ccccc1Nc1nn2c(=O)c3ccc(C(=O)NCc4ccccc4)cc3nc2s1
    104, 106
- Cc1ccc(C)c(CNC(=O)c2cnc3sc(N4CCCC4)nn3c2=O)c1
    109, 109
- Cc1ccc(O)c(C(CC(=O)NCC2(c3ccccc3)CCCC2)c2ccccc2)c1 (stereo not given)
    104, 104
- O=C(Nc1ccc(F)cc1F)c1c2c(nc3ccccc13)C(=O)N(C1CCCCC1)C2
    108, 115
- CCOc1ccc(CN2CCc3nc(Nc4ccc(OC)cc4OC)ncc3C2)cc1
    106, 108
- CC(C)Cn1c(=O)c2ccccc2n2c(-c3ccc(Br)cc3)nnc12
    108, 107
- COc1ccccc1CNC(=O)CCn1c(=O)c2ccccc2n(CC(=O)Nc2ccc(C)cc2C)c1=O
    112, 113
- O=C(NC1CC(=O)N(c2ccc(Cl)cc2)C1)C1CCCCC1 (stereo not given)
    106, 110
- COc1ccc(-c2nc3ccccc3o2)cc1NC(=O)C(C)Oc1ccc(Cl)cc1Cl (stereo not given)
    105, 105
- Cc1cccc(Nc2cc(C)nc3nc(-c4ccccc4)nn23)c1
    108, 97
- CCc1ccc(-c2cc(C)no2)cc1S(=O)(=O)NCc1ccc(OC)cc1
    108, 107
- Cc1ccc2c(CC(=O)N(Cc3ccc(Cl)cc3)Cc3ccco3)coc2c1
    101, 93
- N#Cc1ccc(S(=O)(=O)N2CCC(Oc3cccc(C(F)(F)F)c3)CC2)cc1
    108, 112
- CC1CCc2noc(NC(=O)c3ccccc3[N+](=O)[O-])c2C1 (stereo not given)
    104, 92
- COc1ccccc1Cc1nc2ccccc2nc1SCC(=O)N1CCN(c2ccccc2)CC1
    109, 110
- CCc1ccc(OCC(=O)N(Cc2ccc(C)cc2)Cc2ccco2)cc1
    112, 112
- CCC(C)NC(=O)CCC(=O)N1Cc2ccccc2Oc2ncccc21 (stereo not given)
    113, 108
- Fc1cccc(F)c1-c1nc(-c2ccncc2)no1
    102, 100
- Cc1cccc(NC(=O)CN2C(=O)c3ccccc3Sc3ncccc32)c1C
    108, 113
- O=C(NCc1ccccc1Cl)c1ccc(NC(=O)N2CCCCc3ccccc32)cc1
    103, 114
- CCCN(CCC)c1nn2c(=O)c(C(=O)NCc3cccc(OC)c3)cnc2s1
    99, 102

A section of the results above, for reference:
Values in the order: PV pol inh, PV pol inh intensity
- O=C(NCc1ccccc1Cl)c1ccc(NC(=O)N2CCCCc3ccccc32)cc1
    103, 114
- CCCN(CCC)c1nn2c(=O)c(C(=O)NCc3cccc(OC)c3)cnc2s1
    99, 102

Additional structures follow.
Values in the order: PV pol inh, PV pol inh intensity
- CC(C)c1ccc(S(=O)(=O)NCc2nc3cccnc3n2Cc2ccc(F)cc2)cc1
    110, 106
- COc1cc(OC)c(N(C)C(=O)c2cc3c(s2)-c2ccccc2OC3)cc1Cl
    107, 107
- CC1=C(c2ccc(C)c(C)c2)S(=O)(=O)N(Cc2ccc(C(=O)NCc3ccccc3F)cc2)C1=O
    106, 108
- CCC(=O)N1CCc2cc(Br)cc(S(=O)(=O)CCC(=O)NCCc3ccc(Cl)cc3)c21
    109, 110
- O=C(c1ccc2c(=O)n(CCc3ccccc3)c(=O)[nH]c2c1)N1CCN(c2ccc(F)cc2)CC1
    106, 108
- Cc1cccc(NC(=O)Cn2c(=O)n(CCCS(=O)(=O)C3CCCCC3)c(=O)c3ccccc32)c1
    101, 104
- O=C(NCCn1cc(SCc2ccc(C(F)(F)F)cc2)c2ccccc21)c1cccs1
    104, 104
- Cc1ccc2nc(COc3ccccc3NC(=O)COc3ccc(F)cc3)cc(=O)n2c1
    114, 108
- COc1ccc2c(c1)c1c(c(=O)n(Cc3ccccc3)c(=O)n1CC(=O)NCc1ccccc1)n2C
    105, 100
- COc1ccc(OC)c(NC(=O)Nc2cccc(OCc3cc(=O)n4cc(C)ccc4n3)c2)c1
    107, 113
- Cc1ccc2oc(C(=O)Nc3nnc(CC(C)C)s3)cc(=O)c2c1
    109, 115
- CCc1cccc(C)c1NC(=O)c1cc(S(=O)(=O)NCc2ccccc2Cl)ccc1F
    105, 98
- CCOc1ccccc1NC(=O)Cn1ccn(Cc2ccc(C)cc2)c(=O)c1=O
    105, 111
- Cc1ccccc1OCC(=O)Nc1cccc(C(=O)OCc2cc(=O)n3c(C)csc3n2)c1
    105, 107
- CCOc1ccc(C(=O)Nc2ccccc2OCc2cc(=O)n3ccccc3n2)cc1
    100, 97
- CCc1nnc(SC(CC)C(=O)Nc2ccc(OC)c(Cl)c2)c2cc3occc3n12 (stereo not given)
    105, 109
- Cc1ccc(NC(=O)CSc2ccc3nnc(CCNS(=O)(=O)c4ccccc4)n3n2)cc1Cl
    112, 124
- Cc1ccccc1NC(=O)C1CCC(CNS(=O)(=O)c2ccc3c(c2)C(C)(C)C(=O)N3C)CC1 (stereo not given)
    112, 110
- Cc1ccc(CCNC(=O)c2oc(=O)c3ccccc3c2-c2ccc(C)cc2)cc1
    112, 114
- CCOC(=O)Cn1cnc2c(cnn2-c2ccc(C)c(C)c2)c1=O
    108, 112
- Cc1cc(C)cc(NC(=O)c2c(C)oc3nc(C)nc(N4CCCC4)c23)c1
    112, 113
- CCOC(=O)c1c(C)n(S(=O)(=O)c2ccc(C)cc2)c2ccc(NS(=O)(=O)c3ccc(C)cc3)cc12
    104, 108
- Fc1ccc(-c2nc(-c3cccs3)c(-c3cccs3)[nH]2)cc1
    111, 111
- Cc1cccc(Cn2c(=O)n(CC3CCC(C(=O)NC(C)C)CC3)c(=O)c3sccc32)c1 (stereo not given)
    106, 106
- CN1CCN(c2oc(-c3ccc(COc4ccccc4)o3)nc2C#N)CC1
    106, 109
- COC(=O)c1ccc(Cn2c(SCc3ccccc3)nc3ccncc32)cc1
    110, 109
- Cc1ccccc1OCC(=O)N(Cc1ccc(C(C)C)cc1)C1CCS(=O)(=O)C1 (stereo not given)
    101, 101
- Cc1ccc(N2CCN(C(=O)c3c(C)oc4ncnc(N5CCCCC5)c34)CC2)c(C)c1
    96, 105
- Cc1ccn2c(=O)c(C(=O)NCc3ccccc3Cl)c(O)nc2c1
    107, 108
- COc1ccccc1N1CCN(C(=O)CSc2n[nH]c(-c3ccccc3)n2)CC1
    110, 112
- CCN(CC)c1ccc(NS(=O)(=O)c2cc3[nH]c(=O)c(=O)[nH]c3cc2C)c(C)c1
    85*, 81*
- CC(=O)CSc1nnc2[nH]c(=O)cc(N)n12
    107, 104
- Cc1ccc2c(c1)N(C(=O)CCC(=O)NCc1cccs1)CC(C)O2 (stereo not given)
    105, 105
- Cc1c(C)n(Cc2ccccc2)c2ccc(C(=O)NC(C)c3ccccc3)cc12 (stereo not given)
    113, 108
- CCN1C(=O)c2ccccc2S(=O)(=O)c2ccc(C(=O)NCc3ccc(F)cc3)cc21
    105, 109
- COc1ccc(-c2nnc(SCC(=O)N(C)C3CCCCC3)o2)cc1OC
    107, 111
- COc1ccc2c(CNCc3cccs3)c(C(=O)O)n(Cc3cccc(F)c3)c2c1
    109, 108
- Nc1c(C(=O)c2ccc3c(c2)OCO3)sc(Nc2ccccc2F)c1S(=O)(=O)c1ccccc1
    102, 108
- Cc1nc(-c2ccccc2)sc1-c1ccc(SCC(=O)NCc2ccccc2)nn1
    110, 112
- CCOc1ccccc1CNC(=O)c1nn(C)c2c1CS(=O)(=O)c1ccccc1-2
    103, 93
- COC(=O)c1ccc(Cl)cc1NC(=O)N1CCCn2nc(C)cc21
    117, 109
- COc1ccc(-c2nnc(SCC(=O)N(C)Cc3ccccc3)o2)cc1OC
    108, 113

No new results follow: an excerpt of the list.
Values in the order: PV pol inh, PV pol inh intensity
- COC(=O)c1ccc(Cn2c(SCc3ccccc3)nc3ccncc32)cc1
    110, 109
- Cc1ccccc1OCC(=O)N(Cc1ccc(C(C)C)cc1)C1CCS(=O)(=O)C1 (stereo not given)
    101, 101
- Cc1ccc(N2CCN(C(=O)c3c(C)oc4ncnc(N5CCCCC5)c34)CC2)c(C)c1
    96, 105
- Cc1ccn2c(=O)c(C(=O)NCc3ccccc3Cl)c(O)nc2c1
    107, 108
- COc1ccccc1N1CCN(C(=O)CSc2n[nH]c(-c3ccccc3)n2)CC1
    110, 112
- CCN(CC)c1ccc(NS(=O)(=O)c2cc3[nH]c(=O)c(=O)[nH]c3cc2C)c(C)c1
    85*, 81*
- CC(=O)CSc1nnc2[nH]c(=O)cc(N)n12
    107, 104
- Cc1ccc2c(c1)N(C(=O)CCC(=O)NCc1cccs1)CC(C)O2 (stereo not given)
    105, 105
- Cc1c(C)n(Cc2ccccc2)c2ccc(C(=O)NC(C)c3ccccc3)cc12 (stereo not given)
    113, 108
- CCN1C(=O)c2ccccc2S(=O)(=O)c2ccc(C(=O)NCc3ccc(F)cc3)cc21
    105, 109
- COc1ccc(-c2nnc(SCC(=O)N(C)C3CCCCC3)o2)cc1OC
    107, 111
- COc1ccc2c(CNCc3cccs3)c(C(=O)O)n(Cc3cccc(F)c3)c2c1
    109, 108
- Nc1c(C(=O)c2ccc3c(c2)OCO3)sc(Nc2ccccc2F)c1S(=O)(=O)c1ccccc1
    102, 108
- Cc1nc(-c2ccccc2)sc1-c1ccc(SCC(=O)NCc2ccccc2)nn1
    110, 112
